# Screening data from PubChem.
# YjeE inh = qHTS Assay for Inhibitors of YjeE; purified YjeE, fluorescence polarisation of a bound ADP probe; Potency, µM; 71,000 compounds, 0.05% hits; active = well fitted falling curve; inconclusive = weaker or top-dose-only fall, or a rising curve; inactive = flat or poorly fitted curve;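 note: top concentration of the series not given in the record; excess ADP was the control for the full effect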
#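 Fluorescence polarization of a BODIPY Texas Red–ADP probe (2 uM) bound to purified YjeE (10 uM) was read after 15 min room-temperature incubation with compounds. Loss of polarization marks inhibitors; ADP serves as titrated control.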
# Bst PK mod = Pyruvate Kinase | partly purified Bacillus stearothermophilus pyruvate kinase, luminescence ATP production; ribose 5-phosphate activator present at AC10 | Potency, µM | 51,000 compounds, 1.2% hits; in the data active means potency below about 11 µM; inconclusive means mostly about 12 µM to 25 µM; inactive means weaker than that;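 the screen sought inhibitors and activators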;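 note: potency is the fitted concentration of half-maximal effect; scaled between full activation by ribose 5 phosphate and full inhibition by luteolin; about four in five hits inhibit and the cells do not say which; series up to 57 µM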
# Starred values were filed as active, the others as inactive; i = inactive; x = not tested or not shown. The list is partial; rates above refer to the full screens.
Bst PK mod,YjeE inh,structure
x,i,O=C(NCCNC(=O)c1ccc(Br)o1)c1ccc(Br)o1
x,i,COC(=O)c1oc2ccc(Br)cc2c1NC(C)=O
>57,i,CCn1cc(C(=O)NCCCN2CCC(C)CC2)c(=O)c2cc(S(=O)(=O)N3CCCC3)ccc21
>11,i,Cc1ccc(C)c(S(=O)(=O)N2CCN(CC(=O)NC(=O)NCc3ccccc3)CC2)c1
>57,i,COc1cc(C2NC(=O)NC(O)(C(F)(F)F)C2C(=O)c2cccs2)ccc1O (centres undefined)
>57,i,O=C(NCCN1CCOCC1)c1cc(-c2ccc(F)cc2)on1
x,i,CC(=O)Nc1ccc(S(=O)(=O)N(C)c2ccccc2)cc1
>57,i,CCN(CC)CCn1c(NCc2ccc(OC)cc2)nc2ccccc21
>26,x,COc1ccccc1-c1nnc2sc(C3CCCCC3)nn12
>57,i,CCOC(=O)N1CCC(NC(=O)c2cnn3c(C(F)(F)F)cc(-c4cccc(OC)c4)nc23)CC1
x,i,CC(NC(=O)c1ccco1)C(c1cccs1)N1CCN(c2ccccc2)CC1 (centres undefined)
x,i,COc1ccc(C(=O)N2CCC3(CC2)CN(C(=O)NC(C)C)C3)cc1
>57,i,Clc1ccc(-c2noc(CN3CCN(c4ccccc4)CC3)n2)cc1
>57,i,O=S(=O)(c1ccc(N2CCOCC2)cc1)N1CCOCC1
>57,i,COc1cccc2cc(C(=O)N3CCN(C45CC6CC(CC(C6)C4)C5)CC3)c(=O)oc12

# Compound profiles (already shown).
# COc1ccccc1-c1nnc2sc(C3CCCCC3)nn12 reads Bst PK mod: >26; YjeE inh: x
# COc1ccc(C(=O)N2CCC3(CC2)CN(C(=O)NC(C)C)C3)cc1 reads Bst PK mod: x; YjeE inh: i
# O=C(NCCNC(=O)c1ccc(Br)o1)c1ccc(Br)o1 reads Bst PK mod: x; YjeE inh: i

# Further results
Bst PK mod,YjeE inh,structure
i,i,c1ccc(-c2nnc3sc(-c4csc5c4CCCC5)nn23)cc1
>57,i,OC1CCN(c2ncnc3c2nnn3Cc2c(F)cccc2Cl)CC1
>57,i,CCc1nn(CC(=O)O)c(=O)c2ccccc12
x,i,O=C(/C=C/c1ccc(O)c(O)c1)O[C@@H](C(=O)O)[C@@H](OC(=O)/C=C/c1ccc(O)c(O)c1)C(=O)O
>57,i,O=C(NCCNC(=O)c1cccs1)c1ccco1
>57,i,CCCn1c(=O)c2ccccc2n2c(SCC(=O)c3ccccc3)nnc12
x,i,COc1cc(C2Nc3ccc4ncccc4c3C3=C2C(=O)CCC3)ccc1O (centres undefined)
x,i,O=C1CC(c2ccccc2)CC(O)=C1C=NCCCO (centres undefined)
x,i,O=C1NC(=O)C(c2ccccc2[N+](=O)[O-])=C1Nc1ccc(O)c(Cl)c1
>57,i,COCCn1c(SCC(=O)N2CCCC2)nnc1C(C)C
x,i,CCOc1ccccc1N1CCN(S(=O)(=O)CC)CC1
>57,i,Cc1c(NC(=O)CSc2nnc3sc4ccccc4n23)c(=O)n(-c2ccccc2)n1C
>57,i,COCCCn1c2nc3ccccc3nc2c2c(=O)n(Cc3ccc(Cl)cc3)c(C)nc21
>57,i,Cc1ccc2cc(C#N)c(N3CCCN(C(=O)C4CCCO4)CC3)nc2c1 (centres undefined)
>57,i,Cn1c(=O)n(C)c(=O)n(CC(=O)N2CCCCC2)c1=O

# Continuation:
Bst PK mod,YjeE inh,structure
x,i,COc1cccc(-c2ccc3ncnc(NCc4cnc(C)cn4)c3c2)c1
>57,i,O=C(NCCCN1CCN(c2ccccc2)CC1)Nc1ccccc1C(F)(F)F
>57,i,Nc1nc(-c2cccs2)c(NC(=O)c2ccccc2)s1
6.9*,i,O=C(Oc1ccc(-c2nc(-c3ccccn3)no2)cc1)c1ccccc1
>57,i,CC(=O)N1CCCc2cc(S(=O)(=O)NC(C(=O)NC(C)c3ccccc3)C(C)C)ccc21 (centres undefined)
>57,i,CCC(C)N1C(=O)C2C(C(=O)Nc3cccc(OC)c3)C3C=CC2(O3)C1C(=O)NC1CCCCC1C (centres undefined)
>57,i,Cc1ccc2oc3c(c(=O)c2c1)C(c1cccc(Br)c1)N(Cc1ccco1)C3=O (centres undefined)
>57,i,O=C(NCCc1ccccc1)C1CCCN(C(=O)NC2CCCCC2)C1 (centres undefined)
>57,i,O=C(Cn1c(=O)oc2ccccc21)N1CCCCC1
>57,i,COCCCn1c2nc3ccccc3nc2c2c(=O)n(Cc3ccccc3Cl)cnc21
x,i,CCCCCCCCCCCCC/C=C\[C@@H](O)[C@H](CO)NC(C)=O
>57,i,Cc1cccc(NC(=O)Cn2c(=O)oc3ccccc32)c1
>57,i,O=C(COC(=O)c1cnccn1)c1ccccc1
>57,i,COc1ccc(S(=O)(=O)N[C@@H](CC(C)C)C(=O)O)cc1
x,i,O=C(Nc1nc(-c2ccc3c(c2)OCO3)cs1)C1COc2ccccc2O1 (centres undefined)

# The results go on.
Bst PK mod,YjeE inh,structure
>57,i,O=C(Cn1c(=O)oc2ccccc21)N1CCN(c2ccccc2)CC1
>57,i,O=C(COC(=O)c1ccccc1)NCc1ccco1
>57,i,Cc1onc(-c2ccccc2Cl)c1C(=O)N1CC(C)OC(C)C1 (centres undefined)
>57,i,COc1ccc(CN2C(=O)C(O)(CC(=O)c3c(C)n[nH]c3C)c3ccccc32)cc1OC (centres undefined)
x,i,Cc1nc2cnc(Oc3ccccc3)nc2n(CCc2ccccc2)c1=O
x,i,COC(=O)COC(=O)c1ccc(Oc2nc(OC)nc(N(C)C)n2)cc1
x,i,COc1cccc(Nc2ncc3nc(C)c(=O)n(CCc4ccccc4)c3n2)c1
x,i,COc1ccc(-c2nc(C#N)c(NCC3CCCO3)o2)cc1 (centres undefined)
x,i,CCOc1ccc(NC(=O)C2CSC(c3ccncc3)=N2)cc1 (centres undefined)
>57,i,COc1cc(C(=O)N(CCc2ccccc2)C2CC3CCC(C2)N3C)cc(OC)c1OC (centres undefined)
>57,i,CCN(CC)c1ccc2c(c1)OC(N)=C(C#N)C2c1cccnc1 (centres undefined)
x,i,CC(CCCC(C)(C)O)NCCO (centres undefined)
x,i,CCOC(=O)N1CCC(NC(=O)c2ccc(CS(=O)(=O)c3ccc(OC)cc3)o2)CC1
>26,x,CCc1[nH]c(=O)c(C#N)c2c1CSC(C)(C)C2
>57,i,CCCn1c(SCC(=O)/C(C#N)=C(\C)N)n[nH]c1=O

# (continued)
Bst PK mod,YjeE inh,structure
x,i,COc1ccccc1OCC(=O)N1CCNC1=O
i,i,CCOc1cc(/C=C(/C#N)c2ccc(F)cc2)ccc1OCc1ccc(C(=O)O)o1
>57,i,CSCCC(NC(=O)c1cncc(Br)c1)C(=O)O (centres undefined)
>57,i,CCOC(=O)C1CCCN(C(=O)c2cc(-c3ccccc3)on2)C1 (centres undefined)
>26,x,COC(=O)c1ccc(C2/C(=C(\O)c3ccc4c(c3)OCCO4)C(=O)C(=O)N2CCCN(C)C)cc1 (centres undefined)
>57,i,Cc1cc(C)n(-c2c(F)c(F)c(CN3CCOCC3)c(F)c2F)n1
x,i,Cn1c(=O)c2c(ncn2C)n(C)c1=O
x,i,O=C(O)CCc1nc(-c2ccccc2)c(-c2ccccc2)o1
x,i,O=C(O)CCC(=O)N1CCc2cc(S(=O)(=O)NC3CCCc4ccccc43)ccc21 (centres undefined)
>57,i,COC(=O)c1ccccc1NC(=O)c1cncc(Br)c1
>57,i,COc1cccc(S(=O)(=O)Nc2cccnc2)c1
>57,i,O=C(OCc1nc2ccccc2s1)c1ccc(Br)s1
x,i,COC(=O)[C@@]1(Cc2ccccc2)[C@H]2c3cc(C(=O)N4CCCC4)n(Cc4cc(F)cc5c4OCOC5)c3C[C@H]2CN1C(=O)c1ccccc1
>57,i,Clc1ccc(C2=CSC3=NCCN23)cc1Cl
>57,i,Cc1nnc2c3ccccc3c(-c3ccccc3)nn12

# Looked up above.
# CCOC(=O)C1CCCN(C(=O)c2cc(-c3ccccc3)on2)C1 (centres undefined) in Bst PK mod → >57
# CSCCC(NC(=O)c1cncc(Br)c1)C(=O)O (centres undefined) in Bst PK mod → >57

# Following part
Bst PK mod,YjeE inh,structure
>57,i,CC(=O)c1cccc(NC2c3ncccc3C(=O)N2Cc2ccco2)c1 (centres undefined)
>57,i,O=C(NCc1ccco1)C(c1cccnc1)N(C(=O)Cn1nnc2ccccc21)c1ccc(F)cc1 (centres undefined)
>57,i,N#Cc1ccc(CSc2ncnc3c2cnn3Cc2ccccc2)cc1
>57,i,CN(CCC#N)S(=O)(=O)c1ccc2c(c1)c(=O)n(C)c(=O)n2C
>57,i,CCCCCCn1c(N(CC)CC)nc2c1c(=O)[nH]c(=O)n2C
x,i,C1CCC2(CC1)C1=C(CCCC1)Nc1nnnn12
>26,x,COc1ccc(-c2nnc3sc(-c4ccccc4OC)nn23)cc1
>57,i,CCOC(=O)c1ccc(NC(=O)NCc2ccn(CC)n2)cc1
x,i,CCCn1c(=O)[nH]c2nc(-c3ccc(S(=O)(=O)O)cc3)[nH]c2c1=O
>57,i,Cc1ccc(-c2noc(CSc3nnc(-c4ccccc4)n3C)n2)cc1
>57,i,O=C(CSc1ccccc1)Nc1ccc(S(=O)(=O)NCC2CCCO2)cc1 (centres undefined)
x,i,CN(C)C(=O)c1ccc(-c2nc(NCc3cccnc3)c3ccccc3n2)cc1
>57,i,COC(=O)c1c(NC(=O)CN2CCN(c3ccccc3OC)CC2)c2cc(C)ccc2n1C
>57,i,COc1cc(C(=O)Nc2c(-c3ccccn3)c(=O)c3ccccc3n2C)cc(OC)c1OC
>57,i,CC(=O)OC(C(=O)NC1CCCCC1)c1ccc(C#N)cc1 (centres undefined)

# Given with each value named: 4 of the compounds above
SMILES: COc1cc(C(=O)N(CCc2ccccc2)C2CC3CCC(C2)N3C)cc(OC)c1OC (centres undefined)
  Bst PK mod = >57; YjeE inh = i
SMILES: CCN(CC)c1ccc2c(c1)OC(N)=C(C#N)C2c1cccnc1 (centres undefined)
  Bst PK mod = >57; YjeE inh = i
SMILES: CC(CCCC(C)(C)O)NCCO (centres undefined)
  Bst PK mod = x; YjeE inh = i
SMILES: CCOC(=O)N1CCC(NC(=O)c2ccc(CS(=O)(=O)c3ccc(OC)cc3)o2)CC1
  Bst PK mod = x; YjeE inh = i

# The list continues:
Bst PK mod,YjeE inh,structure
>57,i,CCOc1cc2[nH]c(=O)n(CCCC(=O)NCc3ccco3)c(=O)c2cc1OCC
x,i,Cn1c(=O)c2nc(-c3ccc(Cl)cc3Cl)oc2c2ccccc21
>57,i,COc1ccc(NC(=O)C(c2ccccc2)N(C)C(=O)c2cnccn2)cc1 (centres undefined)
>57,i,c1ccc2[nH]c(CSc3nnc(-c4ccncc4)o3)nc2c1
>11,x,CCN1CCN(c2nc3c(C)cccn3c(=O)c2/C=C(\C#N)S(=O)(=O)c2ccccc2)CC1
>57,i,O=C(O)c1cccc(NC(=O)C23CC4CC(C2)CC(n2cnc(Cl)n2)(C4)C3)c1
x,i,NC(=O)CS(=O)C[C@H](N)C(=O)O (some centres undefined)
>57,i,N=c1n(CCN2CCCC2)c2ccccc2n1CC(O)c1ccco1 (centres undefined)
x,i,Nc1c(C(=O)NCC2CCCO2)sc(=S)n1-c1ccccc1 (centres undefined)
x,i,CC(NC(=O)c1noc2c1CCCCC2)c1ccccc1 (centres undefined)
>26,x,COc1cccc(N2CCN(C(=O)c3ccc(=O)oc3)CC2C)c1 (centres undefined)
>57,i,CCCCC(=O)NC1=NC(=O)C(C)(C)S1
>57,i,COc1ccc(OCC(=O)Nc2cccc(NC(=O)COc3ccc(OC)cc3)n2)cc1
>57,i,O=C(CSc1nnc2ncccn12)N1CCCCCC1
>57,i,COc1cc(C)c(Cl)cc1S(=O)(=O)NCC1CCCO1 (centres undefined)

# (further entries)
Bst PK mod,YjeE inh,structure
x,i,COc1ccc(C2CC(C(F)(F)F)n3nc(C(=O)O)c(Cl)c3N2)cc1OC (centres undefined)
>57,i,CCOC(=O)c1cccc(NC(=O)CN(c2ccc(C)cc2)S(=O)(=O)c2c(C)noc2C)c1
x,i,COc1ccc(N2C(=O)CC(Sc3nnc(-c4ccccc4)o3)C2=O)cc1 (centres undefined)
>57,i,CC(C)=C(NC(=O)c1ccco1)C(=O)NCCc1nc2ccccc2[nH]1
>57,i,Cc1c(C(=O)Nc2cccc(Cl)c2)oc2ccc(S(=O)(=O)N3CCC4(CC3)OCCO4)cc12
x,i,O=C(Nc1nc(-c2ccc3c(c2)OCO3)cs1)C1CC1
>57,i,O=C(O)c1ccc(NCc2cccnc2)cc1
>57,i,O=C(O)CCCN1C(=O)NC2NC(=O)NC21 (centres undefined)
>57,i,C/C(N)=C(/C#N)C(=O)COc1ncnc2ccccc12
x,i,CCCCS(=O)CC(O)COc1ccc(C(C)(C)C)cc1 (centres undefined)
>57,i,CCC(C)(C)n1nnnc1C(c1ccc(Cl)cc1)N1CCN(C)CC1 (centres undefined)
>26,x,O=c1[nH]c2cnccc2n1-c1ccccc1
x,i,CCC[C@@H]1C[C@@]1(CCC)[C@@H](NC(=O)c1ccccc1)c1ccc(C(=O)OC)cc1
x,i,CCCOCCOC(=O)C1=C(C)NC(=O)NC1c1cc(Cl)c(O)c(OC)c1 (centres undefined)
x,i,CCCC(=O)NCCc1cc2ccc(C)c(C)c2[nH]c1=O

# Additional records.
Bst PK mod,YjeE inh,structure
>57,i,O=C(Cc1ccc(-c2ccccc2)cc1)NCCN1CCOCC1
>57,i,CCn1c(=O)c(C(=O)Nc2ccccc2S(N)(=O)=O)c(O)c2ccccc21
7.5*,i,Cc1nnc(SCc2nnc(-c3ccc(Cl)cc3)o2)n1-c1ccccc1
>57,i,CCSc1nc2c(c(=O)n1-c1ccc(F)cc1)SCC2
